# Screens: PubChem, National Center for Advancing Translational Sciences (NCATS)
# Cruzain noTriton: blocks cruzain activity in detergent-free assay. P25779. purified cruzain, Z-FR-AMC fluorescence, no detergent. Potency, µM, inactives show max response, negative = inhibition, most hits filed as inhibitors. hit rate 2.3% among 200,000; active means well fitted curve in the direction sought with a large enough effect; inconclusive means small, poorly fitted or top-dose-only effect, or another doubt; inactive means no such curve, though single readings can be large; an effect the other way counts as inactive or inconclusive;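 further: plate controls were enzyme without inhibitor for no effect and buffer without enzyme for full effect; nearly all actives have a fitted effect of over 40% in size; top concentration of the series not given in the record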
# Target sequence (P25779 123-467 limits assumed): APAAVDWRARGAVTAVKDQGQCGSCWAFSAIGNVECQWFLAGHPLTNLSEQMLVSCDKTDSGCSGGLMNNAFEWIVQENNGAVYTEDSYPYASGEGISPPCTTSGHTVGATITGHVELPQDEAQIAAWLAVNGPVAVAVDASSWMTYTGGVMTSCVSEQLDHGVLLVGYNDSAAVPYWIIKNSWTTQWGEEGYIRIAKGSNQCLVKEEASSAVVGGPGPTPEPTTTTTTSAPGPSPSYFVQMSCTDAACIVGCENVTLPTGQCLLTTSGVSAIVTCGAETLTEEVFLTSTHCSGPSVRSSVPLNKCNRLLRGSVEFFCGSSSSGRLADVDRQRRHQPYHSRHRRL
#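 Detergent-free condition (0.00005% Triton X-100) in acetate buffer pH 5.5 with DTT. 1.5 nM enzyme and compound were pre-mixed 15 min, then 2 uM Z-FR-AMC substrate added; reaction progress from fluorescence change between first and third reads (60 s).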
# Lassa entry inh: Lassa virus entry inhibition; Lassa virus pseudotype entry inhibition, cell reporter; control for the full effect not named in the record; Potency, µM (titrated, usually from 37.9 µM), without a hit: top-dose activity change, negative = inhibition, actives largely listed as inhibitors; hit rate 1.2% among 300,000; AID 540256; active means well fitted inhibition curve with a large enough effect; inconclusive means small, poorly fitted or top-dose-only effect, or effect the other way; inactive means flat fitted curve, though single readings scatter; tested in HEK293 cells; further: on the % scale 0 is the no-effect control and ±100 the full control effect; nearly all actives have a fitted effect of over 50% in size; luciferase read-out
# SARS PLpro yeast: inhibitors of SARS-CoV papain-like protease in yeast. S. cerevisiae expressing SARS-CoV PLpro, growth rescue; control for the full effect not named in the record. Potency, µM (doses to about 32.9 µM), inactives show at the highest dose activity, positive = growth rescue. hit rate 0.19% among 330,000. AID 485353; further: 0% is about no effect; nearly all actives have a fitted effect of over 55% in size; growth read by luminescence after 48 h
# NS1 function inh: inhibitors of influenza NS1 protein function. S. cerevisiae slowed by influenza A NS1, growth recovery by OD600. Potency, µM (highest dose often 46.1 µM), for the others: top-dose activity, positive = more growth. hit rate 0.4% among 270,000; further: actives are rising curves; nearly all actives have a fitted effect of over 50% in size
#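 A cell-based growth assay was used: compounds that relieve NS1-induced slow growth of budding yeast raise OD600. Assay medium was yeast nitrogen base with ammonium sulphate and -URA supplement, pH 6.0, with 2% galactose.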
# 2A StopGo: FMDV 2A StopGo reporter, luciferase signal; human cells with a luciferase reporter of 2A StopGo recoding; control for the full effect not named in the record; Potency, µM (top dose mostly 57.9 µM), for the others: at the top dose signal change, negative = less light; hit rate 1.2% among 410,000; AID 1159524; active = well fitted falling curve with a large enough effect; inconclusive = small, poorly fitted or top-dose-only effect; inactive = no such curve, though single readings can be large or run the other way; tested in HEK293T cells; further: on the % scale 0 is the no-effect control and ±100 the full control effect; nearly all actives have a fitted effect of over 45% in size; luciferase light after 4 h
# Cruzain inh Det: inhibitors of Trypanosoma cruzi cruzain with detergent; P25779; purified cruzain, Z-FR-AMC fluorescence, 0.01% Triton; Potency, µM, for the others: max response, negative = inhibition, hits mostly inhibitors; hit rate 0.43% among 200,000; active means well fitted curve in the direction sought with a large enough effect; inconclusive means small, poorly fitted or top-dose-only effect, or another doubt; inactive means no such curve, though single readings can be large; an effect the other way counts as inactive or inconclusive;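 further: plate controls were neutral wells for no effect and buffer without enzyme for full effect; nearly all actives have a fitted effect of over 40% in size; top concentration of the series not given in the record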
#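 Compounds were screened in titration against cruzain (1.5 nM) with 0.01% Triton X-100 to counter colloidal aggregation. Activity was the AMC fluorescence increase over 60 s after adding 2 uM Z-FR-AMC at pH 5.5.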
# RE007 growth inh: less growth of the S. pombe RE007 Vpr strain; S. pombe RE007 Vpr strain, BacTiter-Glo ATP luminescence, 24 h; control for the full effect not named in the record; Potency, µM (series often up to 92.2 µM), without a hit: at the highest dose activity change, negative = less growth; hit rate 0.21% among 360,000; active = well fitted falling curve with a large enough effect; inconclusive = small, poorly fitted or top-dose-only effect; inactive = no such curve, though single readings can be large or run the other way;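 further: on the % scale 0 is the no-effect control and ±100 the full control effect; nearly all actives have a fitted effect of over 50% in size; the assay follows cell death caused by Vpr and the record does not say whether a fall means rescue or toxicity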
#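 Fission yeast RE007 carrying one integrated HIV-1 vpr copy, seeded at OD 0.01 in PMG+AL medium with 23 nL pinned compound. Grown 24 h at 30 degrees; viability read by BacTiter-Glo luminescence after 5 min.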
# MARV entry inh: Marburg virus entry inhibition | Potency, µM (top dose mostly 37.8 µM), without a hit: top-dose activity change, negative = inhibition, actives largely listed as inhibitors | hit rate 1.8% among 300,000 | AID 540276 | Marburg virus pseudotyped entry inhibition, cell reporter; control for the full effect not named in the record; about a third of the inactives were read at about 46 µM; active = well fitted inhibition curve with a large enough effect; inconclusive = small, poorly fitted or top-dose-only effect, or effect the other way; inactive = flat fitted curve, though single readings scatter; tested in HEK293 cells; about a fifth of its hits are not listed in these tables; further: on the % scale 0 is the no-effect control and ±100 the full control effect; luciferase read-out
# * hit, by the source's call; ? = inconclusive; . = not tested or not shown; & = joins results of further samples; [ ] = another dose, or the depositor's remark. Unless noted, the call rests on the fitted dose curve; in most records, active means well fitted rising curve with a large enough effect; inconclusive means small, poorly fitted or top-dose-only effect; inactive means no such curve, though single readings can be large or run the other way. Potency means the concentration at half of the fitted maximal effect.
SMILES,Cruzain noTriton,Lassa entry inh,SARS PLpro yeast,NS1 function inh,2A StopGo,Cruzain inh Det,RE007 growth inh,MARV entry inh
COc1cccc(C(=O)N2CCC(O)(c3cccnc3)CC2)c1,.,-4%,0%,1%,53%[activator],.,2%,5%[46.1 µM]
CCOC(=O)c1cnc(N2CCN(c3ccccc3)CC2)[nH]c1=O,.,-3%[46.1 µM],0%,-2%,8%,.,-4%,-7%[46.1 µM]
CCCCCc1c(C)nc(N2CCc3ccccc3C2)[nH]c1=O,-3%,19%,0%,1%,3%,6.8%,9%,12%
COc1cc(NC(=O)c2sc3ncn(CC(=O)N4CCC(C)CC4)c(=O)c3c2C)cc(OC)c1OC,.,.,-3%,-18%,-14%,.,-3%,.
Cc1cccc(N2CSC3=C(C#N)C(c4ccc(C)o4)CC(=O)N3C2)c1 (stereo not given),-2%,.,4%,1.8µM*,.,?,.,.
O=C(O)c1cc(-c2ccc(Cl)c(Cl)c2)n(-c2ccc(F)cc2)n1,.,.,0%,8%,-4%,.,2%,.
O=C(Cn1nnc(-c2ccccc2)n1)OC1CCOC1=O (stereo not given),-1%,10%,28%,-9%,17%,-3.5%,-14%,15%
CCN(CC)c1ncnc2c1ncn2[C@@H]1O[C@H](COP(=O)(O)OP(=O)(O)C(Br)(Br)P(=O)(O)O)[C@@H](O)[C@H]1O,-4%,-13%,.,-5%,.,5.2%,.,?
O=C(NNC1=NCCCCC1)c1cccc([N+](=O)[O-])c1,.,15%[46.1 µM],-1%,.,9%,.,60%,-5%[46.1 µM]
C#CCNC(=O)C1=C[C@@H](c2coc3ccccc3c2=O)[C@H](CCCO)[C@@H](OCC)O1,.,.,-2%,3%,-9%,.,10%,.
COc1cccc(CN2CC(C(=O)NCCSc3nnnn3C)CCC2=O)c1 (stereo not given),.,1%,7%,7%,10%,.,-2%,11%
Cc1[nH]c2ccccc2c1C(=O)COC(=O)C1CC(O)CN1S(=O)(=O)c1ccc(Cl)cc1 (stereo not given),.,-4%,11%,.,0%,.,-10%,-4%[46.1 µM]
N#C/C(=C/c1ccc(Cl)cc1)c1nc(-c2ccc(Br)cc2)cs1,-9%,12%[46.1 µM],.,.,1%,-1.7%,.,.
CCc1cc(C(=O)OC)c(NC(=O)CC2Nc3cc(C)c(C)cc3NC2=O)s1 (stereo not given),8%,-1%,9%,1%,-19%,-2.5%,4%,19%
COCCNC(=O)Cn1ccc2cc(S(=O)(=O)N3CCCCCC3)ccc21,2%,9%[46.1 µM],2%,5%,-4%&-7%,-4.0%,9%,.
O=C(CSc1nc2ccccc2c(=O)n1-c1ccc(F)cc1)Nc1ccc(Cl)c(S(=O)(=O)N2CCOCC2)c1,?,9%&-32%,-5%,?,-17%,-1.6%,-22%,?
COc1ccc2c(C)cc(SCC(=O)Nc3c(C)n(C)n(-c4ccccc4)c3=O)nc2c1,6%,-6%,11%,-12%,-25%,-3.4%,-9%,-9%
CCN(CC)CCCNC(=O)c1c(O)c2cc(F)cc3c2n(c1=O)C(C)CC3 (stereo not given),.,.,0%,-7%,-16%,.,-24%,.
CN(C(=O)COC(=O)COc1ccccc1F)C1CCS(=O)(=O)C1 (stereo not given),-10%,13%,0%,-1%,6%,2.7%,-8%,3%
Cc1ccc(S(=O)(=O)NCC(=O)N2CCOCCOCCOCC2)cc1,.,2%,0%,-9%,10%,.,-7%,4%[46.1 µM]
Nc1cc(=O)[nH]c(SCC(=O)Nc2cc([N+](=O)[O-])ccc2Cl)n1,.,-11%,1%,.,-22%,.,3%,0%[46.1 µM]
CC1COc2ccccc2N1C(=O)c1ccc(F)cc1 (stereo not given),.,.,1%,3%,-15%,.,3%,.
O=C(/C=C/c1cccc([N+](=O)[O-])c1)N1CC[C@@]2(O)CCCC[C@H]2C1,.,?,2%,-3%,13%,.,4%,-5%[46.1 µM]
O=C(/C=C/c1ccc([N+](=O)[O-])cc1)OCc1cnc(-c2ccccc2)o1,.,.,-2%,.,4%,.,-7%,9%[46.1 µM]
CCCC1(C(=O)OC)NC(c2ccc(OC)c(OC)c2)C2C(=O)N(c3ccc4c(c3)OCO4)C(=O)C21 (stereo not given),3%,-4%,3%,-2%,9%,-5.4%,-8%,-8%&-8%
Cc1ccc(Cl)cc1N1CCN(C(=O)Cn2ncc3c4ccccc4n(C)c3c2=O)CC1,6%,21%[46.1 µM],.,.,-15%,0.1%,.,2%[46.1 µM]
COc1cccc(CNC(=O)c2ccccc2-c2ccccc2C(=O)O)c1,.,.,-6%,23%,-7%,.,-5%,.
Cc1cccc(NC2CCCCC2NS(=O)(=O)c2ccccc2)c1 (stereo not given),.,.,7%,-11%,-7%,.,-3%,.
O=C(COC(=O)CCSc1ccccc1)NCc1ccccc1Cl,-3%,19%,-16%,-17%,13%,-20%,2%,14%
CC1=C(N2CC2)C(=O)C(CO)=C(N2CC2)C1=O,.,0.11µM*,.,.,0%,.,8%,.
O=C(NCc1ccccn1)Nc1cccc(NC(=O)NCc2ccccn2)c1,7%,?,6%,-1%,70%[activator],3.8%,-4%,?
CC(NC(=O)C1CCC(=O)N1Cc1ccc(F)cc1)c1ccc2c(c1)OCCO2 (stereo not given),-4%,.,2%,?,-2%,4.2%,-1%,.
Cc1cccc2nc(CSc3nnc4ccccn34)cn12,-2%,?,.,-8%,1%,6.7%,2%,13%
COc1nc(OC)nc(N2CCC(C(=O)NCc3ccco3)CC2)n1,6%,-9%,0%,9%,3%,1.8%,1%,-2%
COC(=O)c1cc(OC)c(OC)cc1NC(=S)N1CCCC1,.,-4%,1%,5%,-5%,.,1%,?
O=C(O)CCc1nc(-c2ccccc2Cl)no1,0%,2%,-3%,4%,-14%,0.3%,-5%,15%
Cc1ccc(O)c(NC(=O)C2=CC(c3cccs3)=NS(=O)(=O)N2C)c1,8%,-4%[46.1 µM],1%,-10%,?,-4.1%,-11%,9%[46.1 µM]
COc1ccccc1C(=O)NC(=O)COC(=O)Cn1[nH]c(=O)c2ccccc2c1=O,.,-22%,-6%,.,-17%,.,13%,5%
O=C(NCCc1cccs1)C1CC(c2c(Cl)cccc2Cl)=NO1 (stereo not given),-11%,.,6%,-26%,57%[activator],-3.3%,-16%,.
COCC(=O)NNC(=O)c1ccc(OC)cc1,.,.,1%,.,14%,.,-5%,0%[46.1 µM]
CN1CCN(c2ccc([N+](=O)[O-])cc2NC(=O)c2ccccc2Cl)CC1,-26%,16%,4%,2%,4%,3.1%,0%,?
O=C(C1CCC(Cn2c(=O)c3sccc3n(Cc3cccc(F)c3)c2=O)CC1)N1CCOCC1 (stereo not given),?,-17%[46.1 µM],.,.,-12%,-6.5%,.,.
Cc1ccc(-c2nc3cc(NC(=O)C(C)C)ccc3o2)cc1,8%,11µM*,5%,-1%,-34%,7.9%,7%,?
COc1ccc(S(=O)(=O)N2CCOCC2)c2ccccc12,.,.,4%,-9%,15%,.,11%,.
Cc1ccc(S(=O)(=O)N[C@H](C(=O)OCC(=O)NC(=O)c2cccn2C)C(C)C)cc1,.,-5%[46.1 µM],.,.,-12%,.,16%,-12%[46.1 µM]
COc1ccc(C2=NN(S(C)(=O)=O)C(c3cccs3)C2)cc1 (stereo not given),.,-22%,-1%,-6%,102%[activator],.,5%,?
COc1ccc(C(=O)NNS(=O)(=O)c2ccccc2)cc1OC,.,.,-1%,-2%,-23%,.,1%,.
CN(C)CCn1c(=O)n(-c2ccc(F)cc2)c(=O)c2c3c(sc21)CCCCC3,.,-20%,0%,10%,-27%,.,-15%,?
CCC1([N+](=O)[O-])COC(c2ccc(Cl)cc2)OC1 (stereo not given),.,18%[46.1 µM],.,.,-1%,.,13%,34%[46.1 µM]
Cc1ccc(Sc2cc(C(=O)c3ccccc3C(=O)O)ccc2[N+](=O)[O-])cc1,.,0%[46.1 µM],-2%,11%,-9%,.,20%,-6%[46.1 µM]
Cc1ccc(C)c(CN2C(=O)C(O)(c3c[nH]c4ccccc34)c3ccccc32)c1 (stereo not given),-1%,?,.,.,-16%,-11%,.,?
O=c1cc(COc2ncnc3c(Cl)cc(Cl)cc23)nc2sccn12,.,.,0%,1%,-6%,.,5%,.
O=C1Nc2cc(C(=O)NCCN3CCCCCC3)ccc2S/C1=C\c1ccccc1,.,.,-6%,10%,-21%,.,5%,.
O=C(NCCc1nnc2ccc(SCC(=O)N3CCCC3)nn12)c1ccccc1,.,.,5%,3%,-9%,.,-9%,.
COCCNC(=S)NNC(=O)c1cc(-c2cccnc2)nc2ccccc12,.,-14%,-4%,-1%,10%,.,-3%,3%
COc1cccc(CN2CCNC(=O)C2CC(=O)NCc2cc(C(C)C)no2)c1 (stereo not given),.,2%[46.1 µM],-1%,0%,1%,.,20%,?
Cc1cc(-n2nc(C)cc2C)n2nc(C)c(-c3ccccc3)c2n1,3%,-5%,8%,-3%,23%,-3.5%,9%,?
Cc1ccccc1C(=O)Nc1ccc(C(=O)OCc2cc(=O)n3nc(C(C)C)sc3n2)cc1,2%,?,.,.,8%,0.2%,.,.
CCOC(=O)C1CCN(C(=S)Nc2cc(OC)c(OC)cc2C(=O)OC)CC1,4%,1%,4%,-7%,-17%,-7.0%,-8%,7%
COc1ccc(NC(=O)C(c2cc3c(cc2[N+](=O)[O-])OCO3)N(C)Cc2ccccc2)cc1 (stereo not given),-8%,-19%,-1%,-2%,22%,-6.4%,-17%,?

# Further records:
SMILES,Cruzain noTriton,Lassa entry inh,SARS PLpro yeast,NS1 function inh,2A StopGo,Cruzain inh Det,RE007 growth inh,MARV entry inh
CSc1ccc(/C=C/c2ccc3cccc(O)c3n2)cc1,.,?,-24%,2%,-59%,.,-24%,2.5µM*
CN(c1ccccc1)S(=O)(=O)c1nnc(NC(=O)c2ccco2)s1,-2%,7%[46.1 µM],-2%,5%,15%&23%,-0.7%,-11%,.
COc1ccc(OCCC(=O)NC2=NCCS2)cc1,-9%,1%,-10%,-9%,56%[activator],-0.8%,-11%,27%
Nc1n[nH]c2c1C1(CCCC1)Cc1ccccc1-2,-6%,-23%,0%,11%,-12%,0.4%,3%,-10%
Oc1ccc(/C=N/Nc2ccc(C(F)(F)F)cn2)cc1,.,15%[46.1 µM],-2%,.,36%[activator],.,-13%,?
